High-throughput results (PubChem)
Cruzain noTriton – inhibitors of Trypanosoma cruzi cruzain without detergent | purified cruzain, Z-FR-AMC fluorescence, no detergent | Potency, µM, for inactives: max response, negative = inhibition, most hits filed as inhibitors | actives 2.3% (n = 200,000) | AID 1476; active = well fitted curve in the direction sought with a large enough effect; inconclusive = small, poorly fitted or top-dose-only effect, or another doubt; inactive = no such curve, though single readings can be large; an effect the other way counts as inactive or inconclusive;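 also: plate controls were enzyme without inhibitor for no effect and buffer without enzyme for full effect; nearly all actives have a fitted effect of over 40% in size; top concentration of the series not given in the record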
Target sequence (P25779 123-467 limits assumed): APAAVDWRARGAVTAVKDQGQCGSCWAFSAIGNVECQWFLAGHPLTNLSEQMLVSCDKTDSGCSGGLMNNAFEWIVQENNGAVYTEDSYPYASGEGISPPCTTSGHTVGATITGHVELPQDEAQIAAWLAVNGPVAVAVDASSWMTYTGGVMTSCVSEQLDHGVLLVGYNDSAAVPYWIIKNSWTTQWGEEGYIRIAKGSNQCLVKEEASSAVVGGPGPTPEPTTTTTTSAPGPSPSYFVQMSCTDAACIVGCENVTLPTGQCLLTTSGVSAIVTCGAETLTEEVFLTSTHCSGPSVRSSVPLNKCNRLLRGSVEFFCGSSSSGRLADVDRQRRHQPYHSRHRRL
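Detergent-free condition (0.00005% Triton X-100) in acetate buffer pH 5.5 with DTT. 1.5 nM enzyme and compound were pre-mixed 15 min, then 2 uM Z-FR-AMC substrate added; reaction progress from fluorescence change between first and third reads (60 s).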
NS1 inh – blocks influenza NS1 protein function; S. cerevisiae slowed by influenza A NS1, growth recovery by OD600; Potency, µM (series often up to 46.1 µM), for inactives: at the highest dose activity, positive = more growth; actives 0.4% (n = 270,000); AID 2326; also: actives are rising curves; nearly all actives have a fitted effect of over 50% in size
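OD600 was taken as the measure of yeast growth restored by compound in an NS1-expressing S. cerevisiae strain. Cells had been washed out of glucose medium and diluted 1:100 into galactose -URA medium, pH 6.0.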
SARS PLP yeast – SARS-CoV PLP inhibition in yeast. S. cerevisiae expressing SARS-CoV PLpro, growth rescue; control for the full effect not named in the record. Potency, µM (titrated, usually from 32.9 µM), for inactives: at the top dose activity, positive = growth rescue. actives 0.19% (n = 330,000). AID 485353; also: 0% is about no effect; nearly all actives have a fitted effect of over 55% in size; growth read by luminescence after 48 h
StopGo reporter – lowers the luciferase signal of an FMDV 2A StopGo reporter; AID 1159524; human cells with a luciferase reporter of 2A StopGo recoding; control for the full effect not named in the record; Potency, µM (series often up to 57.9 µM), for inactives: at the highest dose signal change, negative = less light; actives 1.2% (n = 410,000); active = well fitted falling curve with a large enough effect; inconclusive = small, poorly fitted or top-dose-only effect; inactive = no such curve, though single readings can be large or run the other way; tested in HEK293T cells; also: % is scaled to controls: 0 for no effect and ±100 for the full control effect; nearly all actives have a fitted effect of over 45% in size; luciferase light after 4 h
Cruzain inh Det – cruzain (T. cruzi) inhibition with detergent | P25779 | Potency, µM, inactives show max response, negative = inhibition, most hits filed as inhibitors | purified cruzain, Z-FR-AMC fluorescence, 0.01% Triton | AID 1478 | actives 0.43% (n = 200,000); active = well fitted curve in the direction sought with a large enough effect; inconclusive = small, poorly fitted or top-dose-only effect, or another doubt; inactive = no such curve, though single readings can be large; an effect the other way counts as inactive or inconclusive;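 also: plate controls were neutral wells for no effect and buffer without enzyme for full effect; nearly all actives have a fitted effect of over 40% in size; top concentration of the series not given in the record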
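15 min RT preincubation of 1.5 nM cruzain with compound, then 2 uM Z-FR-AMC added; kinetic AMC fluorescence, 60 s delta. Triton X-100 0.01%, pH 5.5.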
LASV entry inh – inhibitors of Lassa virus binding or cell entry | Lassa virus pseudotype entry inhibition, cell reporter; control for the full effect not named in the record | actives 1.2% (n = 300,000) | Potency, µM (titrated, usually from 37.9 µM), for the others: at the top dose activity change, negative = inhibition, hits mostly inhibitors; active means well fitted inhibition curve with a large enough effect; inconclusive means small, poorly fitted or top-dose-only effect, or effect the other way; inactive means flat fitted curve, though single readings scatter; tested in HEK293 cells; also: % is scaled to controls: 0 for no effect and ±100 for the full control effect; nearly all actives have a fitted effect of over 50% in size; luciferase read-out
Marburg entry inh – inhibitors of Marburg virus binding or cell entry; AID 540276; Marburg virus pseudotyped entry inhibition, cell reporter; control for the full effect not named in the record; about a third of the inactives were read at about 46 µM; actives 1.8% (n = 300,000); Potency, µM (titrated, usually from 37.8 µM), for inactives: at the top dose activity change, negative = inhibition, hits mostly inhibitors; active = well fitted inhibition curve with a large enough effect; inconclusive = small, poorly fitted or top-dose-only effect, or effect the other way; inactive = flat fitted curve, though single readings scatter; tested in HEK293 cells; about a fifth of its hits are not listed in these tables; also: % is scaled to controls: 0 for no effect and ±100 for the full control effect; luciferase read-out
RE007 growth inh – less growth of the S. pombe RE007 Vpr strain; S. pombe RE007 Vpr strain, BacTiter-Glo ATP luminescence, 24 h; control for the full effect not named in the record; Potency, µM (top dose mostly 92.2 µM), for inactives: at the highest dose activity change, negative = less growth; actives 0.21% (n = 360,000); AID 651644; active = well fitted falling curve with a large enough effect; inconclusive = small, poorly fitted or top-dose-only effect; inactive = no such curve, though single readings can be large or run the other way;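 also: % is scaled to controls: 0 for no effect and ±100 for the full control effect; nearly all actives have a fitted effect of over 50% in size; the assay follows cell death caused by Vpr and the record does not say whether a fall means rescue or toxicity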
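Fission yeast strain RE007, carrying one chromosomally integrated HIV-1 vpr copy, was seeded at OD 0.01 in PMG+AL medium with 23 nL pinned compound. After 24 h at 30 °C and 99% humidity, viability was read by BacTiter-Glo luminescence.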
* marks the source's active call; other numbers are inactive results; ? = inconclusive; . = no result given; & = joins results of further samples; [ ] = another dose, or the depositor's remark. Unless noted, calls follow the shape of the dose curve; as a rule, active means well fitted rising curve with a large enough effect; inconclusive means small, poorly fitted or top-dose-only effect; inactive means no such curve, though single readings can be large or run the other way. Potency is read from the fitted curve at half-maximal effect.

SMILES	Cruzain noTriton	NS1 inh	SARS PLP yeast	StopGo reporter	Cruzain inh Det	LASV entry inh	Marburg entry inh	RE007 growth inh
COCCN(CCOC)CC(O)COC(c1ccccc1)c1ccccc1 (stereo not drawn)	.	.	-2%	-12%	.	-7%	-28%[46.1 µM]	14%
CCC1(O)CCCC2C3CCC4CC(=O)CCC4(C)C3C(=O)CC21C (stereo not drawn)	.	.	.	-20%	.	-21%	-15%	-15%
COc1cccc(CN2C(=O)c3ccccc3Sc3ccc(C(=O)NCCc4ccc(Cl)cc4)cc32)c1	20µM*	.	.	8%	-2.7%	-9%[46.1 µM]	16%[46.1 µM]	.
CCN(CC)C(=O)C1CCCN(c2ccc([N+](=O)[O-])cc2/C=N/NC(=O)c2cccc([N+](=O)[O-])c2)C1 (stereo not drawn)	?	19%	6%	-15%	-0.9%	.	.	-8%
CN(Cc1ccccc1)CC(O)COc1ccc(CNCCOc2cccnc2)cc1 (stereo not drawn)	.	3%	-1%	-6%	.	.	?	-2%
CC1(C)CN(c2ccsc2C(=O)O)C1=O	.	4%	2%	-2%	.	-20%	22%[46.1 µM]	-14%
O=C(c1ccccc1)C(CN1CCCCC1)c1ccccc1 (stereo not drawn)	.	.	.	28µM*	.	?	?	?
Cc1nc(CC(=O)c2ccc(O)c(C)c2O)cs1	.	-6%	1%	10%	.	.	0%	-17%
Cc1ccc(-n2nc(C(=O)O)c3ccccc3c2=O)cc1C	-10%	-4%	6%	8%	-4.0%	?	?	6%
CC(=O)Oc1ccc2nc(/C=C/c3ccccc3)oc(=O)c2c1	.	1%	4%	16%	.	-21%[46.1 µM]	?	-13%
Cc1cc(-n2cnc(-c3cn[nH]c3C)n2)no1	.	-2%	1%	11%	.	5%[46.1 µM]	-9%[46.1 µM]	-3%
COc1cccc(C(=O)/C=C/c2ccc(SC)cc2)c1	-5%	-109%	-20%	24%	-0.5%	5%	-2%	-17%
C/C(=N\NC(=O)c1ccccc1)c1ccc(C)c([N+](=O)[O-])c1	12%	2%	-2%	30%	-3.1%	-1%	?	15%
CCn1c(C)c(C)c2cc(C(=O)NCCCN3CCCCC3)ccc21	9%	2%	-11%	-11%&-7%	6.2%	?	?	-6%
CC(C)c1ccc(C(O)Cc2nc3ccccc3n2C)cc1 (stereo not drawn)	.	3%	5%	14%	.	-30%	?	-3%
O=C(NCc1ccc2c(c1)CCN2C(=O)c1ccncc1)c1ccccc1Cl	6%	.	.	5%	1.2%	?	.	.
CCc1ccc(N(C(=O)c2ccco2)C(C(=O)NC2CCCC2)c2ccco2)cc1 (stereo not drawn)	.	.	.	9%	.	?	-8%	4%
Cc1ccc(C(=O)N2CCC(C(=O)Nc3cccc([N+](=O)[O-])c3)CC2)cc1	.	-11%	-6%	-10%	.	20%[46.1 µM]	?	-4%
O=C(Cc1sc(Nc2ccccc2)nc1-c1ccccc1)NCc1ccccc1	?	?	0%	-8%	-0.5%	?	?	1%
O=[N+]([O-])c1cc([As](=O)(O)c2ccc(O)c([N+](=O)[O-])c2)ccc1O	.	2%	-1%	14%	.	-1%[46.1 µM]	?	5%
Cc1cc2cc3c(cc2nc1SCC(=O)Nc1c(C)cccc1C)CCC3	4%	25%	16%	.	3.4%	-9%	?	5%
COc1ccccc1CNC(=O)CCC(=O)N1CCOc2ccc(Cl)cc21	.	-12%	3%	0%	.	.	.	-4%
CCc1ccc(-n2c(O)cnc2Nc2nc(C)cc(C)n2)cc1	5%	-6%	11%	-7%	4.9%	.	.	13%
COc1cc(CNCCc2ccc(S(N)(=O)=O)cc2)ccc1OCC(=O)NC1CCCCC1	-2%	4%	-2%	-3%	-20%	4%	?	11%
CCOc1ccccc1NC(=O)CCCNC(=O)Cn1cnc2sc(C)c(C)c2c1=O	.	-6%	0%	10%	.	-15%[46.1 µM]	6%[46.1 µM]	-9%

Remaining list, next part:
SMILES	Cruzain noTriton	NS1 inh	SARS PLP yeast	StopGo reporter	Cruzain inh Det	LASV entry inh	Marburg entry inh	RE007 growth inh
Cc1ccc(N2C(=O)c3ccc(C(=O)N4CCN(c5ccc(C)c(C)c5)CC4)cc3C2=O)cc1	.	.	-1%	-16%	.	?	8%	-2%
N#Cc1c(N)n(-c2cccc(Cl)c2)c2nc3ccccc3nc12	0%	.	.	-26%	-0.2%	-3%[46.1 µM]	9%[46.1 µM]	.
CCOC(=O)N1CCN(C(=O)Cc2ccsc2)CC1	-5%	-2%	-4%	-20%	6.0%	0%	3%	0%
CS(=O)(=O)N(CC(=O)Nc1ccccc1)Cc1ccc(Cl)cc1	5%	1%	6%	0%	-0.6%	-2%	-1%	-6%
CC(C)Oc1ccc(CNS(=O)(=O)c2csc(C(N)=O)c2)cc1	4%	3%	3%	-16%&-1%	2.1%	11%[46.1 µM]	.	-1%
Cc1ccc(Cn2c(=O)n(-c3cccc(C(F)(F)F)c3)c(=O)c3c(C)c(C)sc32)c(C)c1	-7%	.	.	0%	-2.3%	-1%[46.1 µM]	-2%[46.1 µM]	.
CCOC(=O)c1c(CN2CCNCC2)nc2ccc(Cl)cc2c1-c1ccccc1	.	.	.	-17%	.	-29%	?	-10%
Cc1cc(C)c(NC(=O)C(C)n2nc(-c3ccc(C)c(C)c3)ccc2=O)c(C)c1 (stereo not drawn)	28%	.	.	-16%	-1.4%	-11%[46.1 µM]	2%[46.1 µM]	.
COc1cc(NC(=O)c2ccccc2)c(OC)cc1NC(=O)CN1CCOCC1	-2%	-26%	4%	-18%	-2.3%	-20%	-3%	-25%
O=C(CNC(=S)N(Cc1ccccc1Cl)C1CCCC1)NCCN1CCOCC1	.	.	-1%	6%	.	-1%	24%[46.1 µM]	8%
COCCCn1c(SCC(=O)N2CC(=O)Nc3ccccc32)nnc1-c1ccoc1C	-3%	4%	0%	1%	-0.8%	15%	-1%	7%
O=C(COc1ccc(S(=O)(=O)N2CCCC2)cc1Cl)NC1CC1	-6%	-1%	22%	-13%	3.4%	0%	22%	1%
O=c1c2c3c(sc2nc2n1CCCC2)CCCCC3	-7%	-116%	-60%	9%	-1.4%	8%	?	?
c1ccc(Cc2nnc(SCc3nc(-c4cccs4)no3)n2-c2ccccc2)cc1	10%	.	.	-15%	-7.4%	?	1%[46.1 µM]	.
Cc1cc(=O)n2nc(N3CCC(C(=O)NC4CCCc5ccccc54)CC3)sc2n1 (stereo not drawn)	3%	12%	0%	0%	-13%	3%	5%	5%
C[C@H](NC(=O)c1nc[nH]c1C(=O)N1CCc2ccccc2C1)C(=O)OC(C)(C)C	.	-7%	1%	-25%	.	.	.	17%
COCCOC(=O)c1c(N)n(Cc2ccco2)c2nc3ccccc3nc12	0%	-40%	1%	-20%	-4.6%	-1%	0%&0%&0%[46.1 µM]	-3%
CCOc1ccc(C(CC(=O)O)n2cnnn2)cc1OC (stereo not drawn)	.	.	-1%	2%	.	-8%	30%[46.1 µM]	-3%
Cc1ccccc1CSc1nnnn1-c1ccc(C(N)=O)cc1	.	4%	3%	-3%	.	-22%	?	-16%
C=CCNC(=S)/N=C/c1c(O)[nH]c(=O)[nH]c1=O	.	3%	0%	-7%	.	-11%	-1%[46.1 µM]	-1%
Cc1nn(CC(C)C)c(Cl)c1C(=O)O	.	.	1%	2%	.	5%	-10%	-2%
O=C(NC(=S)Nc1ccccn1)c1ccc(-c2ccccc2)cc1	.	0%	5%	8%	.	-24%[46.1 µM]	.	-22%
COc1cc(/C=C2\SC(=O)N(CC(=O)Nc3ccc(C)cc3)C2=O)cc(Cl)c1OCC(=O)O	.	?	0%	-10%	.	.	.	1%
CC1CCC(N2CCN(C(=O)COc3ccccc3)CC2)CC1 (stereo not drawn)	.	-9%	-1%	-19%	.	1%	-21%[46.1 µM]	-17%
CCOc1ccc(CN2CCN(Cc3ccsc3)C(CCO)C2)cc1CO (stereo not drawn)	.	2%	0%	1%	.	8%[46.1 µM]	5%[46.1 µM]	8%

Additional structures.
SMILES	Cruzain noTriton	NS1 inh	SARS PLP yeast	StopGo reporter	Cruzain inh Det	LASV entry inh	Marburg entry inh	RE007 growth inh
CCn1c(SCC(=O)Nc2ccccc2C(=O)OC)nc2ccsc2c1=O	19%	.	.	8%	4.4%	-2%[46.1 µM]	.	.
COCCOC(=O)c1c(C)n(C)c2ccc(OC(=O)c3ccco3)cc12	3%	-1%	3%	19%	-1.9%	8%	8%	-9%
COc1ccc(NC(=S)NNC(=S)Nc2cccc(C(F)(F)F)c2)cc1	.	0%	-1%	14%	.	?	?	-12%
O=C1NC(=O)N(Cc2ccccc2)C1=O	.	1%	2%	-9%	.	-5%[46.1 µM]	2%[46.1 µM]	-5%
Cc1cc(N2C(=O)C(O)=C(C(=O)c3cc4ccccc4o3)C2c2cccc(Br)c2)no1 (stereo not drawn)	.	2%	30%	-27%	.	.	.	-17%
Cc1nn(Cc2ccccc2Cl)c(Cl)c1C(=O)OCC(=O)NCc1ccco1	4%	7%	1%	0%	-1.9%	?	0%&-24%	13%
O=C(NCCCN1CCOCC1)C(=O)NCc1ccccc1Cl	.	.	-1%	7%	.	-1%[46.1 µM]	?	3%
NCCc1ccn[nH]1	6%	.	.	-2%	-5.0%	.	.	47%[18.4 µM]
O=C(NCCCn1ccnc1)C(=O)NCC(c1cccnc1)N1CCN(c2ccccc2)CC1 (stereo not drawn)	1%	29%	-3%	-15%	-0.3%	2%	2%	-4%
O=C(COC(=O)Cn1[nH]c(=O)c2ccccc2c1=O)Nc1ncc(Cl)cc1Cl	.	.	-2%	-24%	.	14%	3%	-5%
COc1ccccc1C1(CCN=Cc2ccc(N(C)C)cc2)CCOC(C)(C)C1 (stereo not drawn)	.	0%	-3%	7%	.	-8%	0%[46.1 µM]	8%
CCOC(=O)c1sc2cc([N+](=O)[O-])cc(SCC(=O)OC)c2c1N	-24%	9%	-5%	-24%	-22%	9%	-5%	20%
COc1ccccc1CN1CCC(n2nccc2NC(=O)c2ccccc2Cl)CC1	.	3%	1%	11%	.	.	.	-6%
C/C(Cn1ncc(N2CCOCC2)c(Cl)c1=O)=N\O	.	1%	1%	-5%	.	.	.	14%
